VACV mCherry inh – qHTS for Stage-Specific Inhibitors of Vaccinia Orthopoxvirus: mCherry Reporter Primary qHTS; Vaccinia virus mCherry reporter infection, fluorescence; about a quarter of the inactives have no number; Potency, µM (top dose mostly 36.5 µM), for the others: top-dose activity change, negative = inhibition, most hits filed as inhibitors; 310,000 compounds, 0.63% hits; AID 720579, 2013; active = well fitted inhibition curve with a large enough effect; inconclusive = small, poorly fitted or top-dose-only effect; inactive = no such curve, though single readings can be large or run the other way; tested in A549 cells; note: nearly all actives have a fitted effect of over 35% in size; inactives centre near -10
VACV Venus inh – qHTS for Stage-Specific Inhibitors of Vaccinia Orthopoxvirus: Venus Reporter Primary qHTS. Vaccinia virus Venus reporter expression, fluorescence. Potency, µM (highest dose often 36.5 µM), for inactives: top-dose activity change, negative = inhibition, actives largely listed as inhibitors. 330,000 compounds, 0.46% hits. AID 720580, 2013; active means well fitted inhibition curve with a large enough effect; inconclusive means small, poorly fitted or top-dose-only effect; inactive means no such curve, though single readings can be large or run the other way; tested in A549 cells; note: nearly all actives have a fitted effect of over 30% in size; inactives centre near -10
Starred values were filed as active, the others as inactive; i = inactive; ? = inconclusive; / = no result given; & = joins results of further samples; [ ] = remark or other dose. % is set by controls: 0 for no effect and ±100 for the full control effect; potency is the fitted concentration of half-maximal effect.

Molecule	VACV mCherry inh	VACV Venus inh
CCC1(C)OC(=O)N2CCc3c(C)[nH]c4c(C)ccc(c34)C21C (stereo not given)	i	-18%
CCCc1nnc(NC(=O)c2ccc(S(=O)(=O)N(C)c3ccccc3OC)cc2)s1	-17%	-11%
COCCn1c(C)nnc1SCC(=O)NNC(=O)c1ccc(Cl)cc1	-25%	-10%
COc1ccc(Cl)cc1NC(=O)c1ccc2nc(Cc3ccccc3)oc2c1	-6%	5%
Cc1ccc2c(c1)=C/C(=C\c1c(O)[nH]c(=O)[nH]c1=O)C(=O)N=2	i	-5%
Cc1ccc2[nH]c3c(=O)n(CC(=O)NCc4ccco4)ncc3c2c1	-8%	-6%
COc1ccccc1N(CC(O)Cn1nc(C)cc1C)S(=O)(=O)c1ccccc1 (stereo not given)	-4%	-2%
O=C(CSc1nnc(COc2ccc(Cl)cc2)o1)Nc1nccs1	i	-15%
Cc1cc(S(=O)(=O)NCc2ccco2)c(C)s1	-23%	-7%
CCOC(=O)CSc1nc(-c2cccs2)nc2c1c(=O)n(C)c(=O)n2C	i	-7%
O=[N+]([O-])c1ccc(O)c(C2CCCCC2)c1	?	?
Cc1ccc(OCC(=O)NCCCNC(=O)c2ccc(C)nc2)cc1	-10%	-14%

(listing goes on)
Molecule	VACV mCherry inh	VACV Venus inh
CC1CCN(CCNC(=O)c2ccc(Cn3c(SCc4ccccc4)nc4cccnc43)cc2)CC1	-13%	-20%
CCCCCCC1CC(CSC(=N)N)OC1=O (stereo not given)	/	?
COc1ccc(C(=O)N2CC(=O)Nc3ccc(C)cc3C2c2ccccc2)c(OC)c1 (stereo not given)	-9%	-14%
Cc1ccc(-n2c(SCC(=O)Nc3cccc(Cl)c3)nc3n[nH]c(C)c3c2=N)cc1	-13%[7.34 µM]	-12%[7.34 µM]
Fc1ccc(CNc2nc3ccccc3n3cnnc23)cc1	-16%	-6%
O=C(Cn1cc([N+](=O)[O-])cn1)Nc1ccc(Cn2cc(Br)cn2)cc1	-22%	-6%
CC1CCc2c(C(=O)OCC(=O)Nc3cccc(S(=O)(=O)N4CCCCCC4)c3)csc2C1 (stereo not given)	-11%	-9%
COc1cc(NC(=O)CSc2cc(=O)n(C)c3ccccc23)cc(OC)c1OC	7%	2%
COC(=O)/C=c1/s/c(=C(/C#N)C(=O)N2CCOCC2)n(-c2ccccc2)c1=O	-13%	-4%
COc1cccc(-c2nnn(CC(C)=O)n2)c1	-11%	-2%
NC(=O)c1sc(=S)n(-c2ccc(Br)cc2)c1N	i	-12%
O=C(CN(Cc1ccc2c(c1)OCO2)C(=O)CNS(=O)(=O)c1ccccc1)NCC1CCCO1 (stereo not given)	/	-17%

Among those listed so far, these contain bromine.
Molecule	VACV mCherry inh	VACV Venus inh
O=C(Cn1cc([N+](=O)[O-])cn1)Nc1ccc(Cn2cc(Br)cn2)cc1	-22%	-6%
NC(=O)c1sc(=S)n(-c2ccc(Br)cc2)c1N	i	-12%

Next results
Molecule	VACV mCherry inh	VACV Venus inh
C/C(N)=C(/C#N)C(=O)COC(=O)c1cc2c(s1)CCC(C)C2 (stereo not given)	-19%	-21%
COc1ccccc1-c1nc2ccccc2n(CC(C)C)c1=O	?	-21%
COC(=O)C1=C(c2ccc(Cl)c(C(F)(F)F)c2)C[C@@H]2CC[C@H]1N2C(=O)NC1CC1	-10%	-20%
CCC1(CC)NC(=O)N(CC(=O)OCC(=O)Nc2ccc(F)c(F)c2F)C1=O	-13%	-12%
O=[N+]([O-])c1ccc(Sc2nc3ccccc3o2)c([N+](=O)[O-])c1	?	?
O=C(COC(=O)CNC(=O)c1ccccc1)Nc1cccc(Br)c1	-7%	-7%
COc1ccccc1NC(=O)c1c(Nc2ccccc2C)sc(C(=O)Nc2cccc(Cl)c2)c1N	-25%	?
CCOC(=O)C1CCC(CN(Cc2ccccc2)S(=O)(=O)c2ccc(Cl)cc2)CC1 (stereo not given)	-9%	-8%
COc1ccc(NC(=O)CC2C(=O)N(c3cccc(OC)c3)C(=O)N2CCC2=CCCCC2)cc1 (stereo not given)	-11%	-13%
CCn1cc2nc(SCC(=O)Nc3cc(OC)cc(OC)c3)n(Cc3ccc(Cl)cc3)c(=O)c2n1	-16%	-19%
Cc1nn(Cc2ccc(Cl)cc2Cl)c(C)c1NC(=O)Cn1nc([N+](=O)[O-])c(Cl)c1C	/	-10%
CSc1nn(Cc2ccccc2C)c(NC(C)=O)c1S(=O)(=O)c1ccc(C)cc1	-21%	-16%

Looked up above.
VACV Venus inh, `Cc1nn(Cc2ccc(Cl)cc2Cl)c(C)c1NC(=O)Cn1nc([N+](=O)[O-])c(Cl)c1C` stands at -10%
VACV Venus inh, `COc1cc(NC(=O)CSc2cc(=O)n(C)c3ccccc23)cc(OC)c1OC` stands at 2%

(continued)
Molecule	VACV mCherry inh	VACV Venus inh
CN(C)C(CNC(=O)c1cc(S(=O)(=O)N(C)c2ccccc2)ccc1Cl)c1cccs1 (stereo not given)	-3%	-10%
CCOc1ccccc1N1CCN(CC(=O)NCCc2ccc(S(N)(=O)=O)cc2)CC1	-11%	-2%
CSc1nsc(/C=C/Nc2ccc(F)cc2F)c1C#N	i	10%
COc1ccc(C2Nc3ccccc3C(=O)N2Cc2ccco2)cc1COc1ccc(NC(C)=O)cc1 (stereo not given)	-8%&-15%	-19%&-8%
CC1=C(C(=O)Nc2cccnc2)C(c2cccnc2)n2ncnc2N1 (stereo not given)	-13%	-9%
O=C(CN(C(=O)C1CSC(=O)C1)c1cccc(F)c1)NC1CCCC1 (stereo not given)	i	-9%
COc1ccc(NC(=O)CC2Oc3ccc(C)cc3NC2=O)cc1Cl (stereo not given)	-6%	-14%
O=C(Nc1nc(-c2ccc(Cl)s2)cs1)c1cccs1	?	?
CC1CC(C)CN(C(=O)CCNC(=O)c2ccccc2Cl)C1 (stereo not given)	-20%	-21%
CCCn1nc2cc(C(=O)NC3CCc4ccccc43)ccc2c1OCC (stereo not given)	-7%	-12%
O=C(Nc1ccccc1-c1ccccc1)NC1CC2CCCC(C1)N2Cc1ccc(F)cc1 (stereo not given)	-24%	-19%
Cc1ccc2c(ccn3cc4c(c(=O)n(C)c(=O)n4C)c23)c1	-9%	-10%

Next section; the last 2 above are carried over.
Molecule	VACV mCherry inh	VACV Venus inh
O=C(Nc1ccccc1-c1ccccc1)NC1CC2CCCC(C1)N2Cc1ccc(F)cc1 (stereo not given)	-24%	-19%
Cc1ccc2c(ccn3cc4c(c(=O)n(C)c(=O)n4C)c23)c1	-9%	-10%
CCCc1nnc(SCc2cc(=O)c3c(C)cc(C)cc3[nH]2)n1C	0%	-10%
CCOC(=O)Cn1c(=NC(=O)CN2C(=O)CCC2=O)sc2cc(S(N)(=O)=O)ccc21	-11%	-15%
O=C(O)CCSc1nnc(-c2ccncc2)n1-c1ccccc1	/	-6%
Cn1nccc1C(=O)N1CCN(C23CC4CC(CC(C4)C2)C3)CC1	-29%	-2%
CCOC(=O)C(N)CSC1CC(=O)N(c2ccc(C(=O)OC)cc2)C1=O (stereo not given)	/	2%
CCC(C)NC(=O)NC(=O)N(C1CCCCC1)S(C)(=O)=O (stereo not given)	-11%	-3%
CC1(C(=O)Nc2cccc3c2CCCC3)CCN1C(=O)CCc1ccc(Cl)cc1Cl (stereo not given)	i	-3%
COc1cc2ccccc2cc1C(=O)N1CCc2ccccc21	-21%	-29%
CCn1cc(C(=O)N2CCN(c3cc(C)ccc3C)CC2)c(=O)c2cc(S(=O)(=O)N3CCCCC3)ccc21	-13%	5%
Cc1ccc(NC(=S)N2CCN(c3nccc(C(F)(F)F)n3)CC2)c(C)c1	?	30%
CC(C)c1ccc(NC(=O)Nc2nc(C(C)N)cs2)cc1 (stereo not given)	4%	-9%
CCCCCCNC(=O)O[C@@]12CN(S(=O)(=O)c3ccc(C)cc3)C[C@]1(O)Cn1c(=O)n(CCCCCC)c(=O)n1C2	?	?

Other entries follow.
Molecule	VACV mCherry inh	VACV Venus inh
Cc1ccc(C(=O)NCC(=O)OCc2csc(-c3ccccc3)n2)cc1	-16%	-5%
NC1=NC[C@H](c2ccccc2)N1CCCCC1CCCCC1	-27%	?
Cc1ccc(/C=C/c2onc(C)c2S(=O)(=O)N2CCC(C(=O)N3CC(C)Oc4ccccc43)CC2)cc1 (stereo not given)	-12%[7.34 µM]	-13%[7.34 µM]
COc1cccc(-c2cc(NC=O)c3ncc(-c4cccc(C(=O)N(C)C)c4)n3c2)c1	-15%	-23%
COc1ccc(-c2nc3sc(CCNC(=O)C(=O)Nc4cccc(NC(C)=O)c4)c(C)n3n2)cc1	-19%	?
CCOC(=O)CNC(=O)CC(c1cc(OC)c(OC)c(OC)c1)N1Cc2ccccc2C1=O (stereo not given)	12%	16%
COCCCn1c(C)nnc1SCC(=O)NNC(=O)COc1ccc(Cl)cc1	-20%	8%
O=C(OCc1cc(Cl)ccc1OC(F)F)c1cncc(Br)c1	-16%	-10%
Cc1cc(=O)n2[nH]c(-c3ccc(F)cc3)cc2n1	-17%	-4%
COc1cc(CN2CCC3(CCC(CNC(=O)c4ccco4)O3)CC2)ccc1O (stereo not given)	i	-5%
COc1ccc(-c2cc(C(=O)N3CCOCC3)no2)cc1	i	-6%
Cc1ccnc(NS(=O)(=O)c2ccc(NC(=O)CCOc3ccccc3)cc2)n1	i	-3%

Following part:
Molecule	VACV mCherry inh	VACV Venus inh
COc1cc(C=NNC(=O)c2ccccc2NS(=O)(=O)c2cccs2)cc(OC)c1O	i	-5%
Cc1nnc2ccc(-c3cccc(NC(=O)c4ccc(Cl)nc4)c3)nn12	?	-5%
C#CCOCCOCCOCCNc1nc(N2CCN(C(=O)[C@H](Cc3cc4ccccc4[nH]3)n3cc([C@@H](N)C(C)CC)nn3)CC2)nc(N2CCN(C(=O)[C@H](CCCCN)n3cc([C@@H](N)CC(C)C)nn3)CC2)n1 (stereo not given in full)	i	2%
CC1(C)C(C#N)=C(N)OC2=C1C(=O)CCC2	-15%	-9%
Clc1ccc(Nc2c(-c3cccs3)nc3ccc(Cl)cn23)cc1	-13%	-11%
COc1ccc2[nH]cc(CCn3ccc(=O)c(C)c3C)c2c1	-3%	-12%
Cc1ccc(NC(=O)CN(C)c2ccc(S(=O)(=O)N3CCCC3)cn2)cc1	-6%	-22%
COc1cccc(/C=C2\N=C(c3c(-c4ccccc4)noc3C)OC2=O)c1	i	-12%
Cc1ccc(Cl)cc1NC(=O)C1CC(=O)Nc2ncnn21 (stereo not given)	?	?
COc1ccc(OC)c(C(=O)COC(=O)COc2ccccc2)c1	i	-9%
O=C(Cc1ccccc1)NCCc1ccc(Cl)cc1Cl	-7%	3%
COc1ccc(C(=O)N2C[C@H]3C[C@@H](C2)c2cccc(=O)n2C3)cc1OC	-4%	-7%

Further structures:
Molecule	VACV mCherry inh	VACV Venus inh
Cc1cccc(NC(=O)N2CCCCCC2)c1C	i	-21%
O=C(CCS(=O)(=O)c1ccccc1)Nc1nc(-c2ccccn2)cs1	10µM*	?
CCOC(=O)CN(Cc1sccc1C)C(=O)Nc1cccc(OC)c1	-11%	-2%
Nc1nc(N)c(-c2ccccc2)s1	-15%	-9%
N#Cc1cccc(NC(=O)Cn2cnc(S(=O)(=O)N3CCCCC3)c2)c1	i	-22%
CCc1nc2c(OCc3ccccc3)cccn2c1N(C)C(=O)COc1ccccc1	i	0%
CC(=O)c1ccc(S(=O)(=O)NCCC(=O)NC2CCN(Cc3ccccc3)CC2)cc1	i	0%
Cc1[nH]c2ccc(C(=O)NCCCN3CCCCCC3)cc2c1C	-18%	-8%
Cc1c(/C=C/C(=O)c2ccccc2)cnn1C	-9%	?
O=C(COc1ccccc1Cl)NNC(=O)C1CCCO1 (stereo not given)	/	-3%
COc1ccc(/C=N/NC(=O)c2ccoc2C)cc1OC	-12%	0%
O=P(c1ccccc1)(c1ccccc1)c1ccc(O)cc1	i	-4%

Continuation.
Molecule	VACV mCherry inh	VACV Venus inh
C(=NOCc1ccccc1)c1ccncc1	-18%	-1%
Cc1ccc(OCC(O)CNS(=O)(=O)c2ccccc2C(=O)O)cc1 (stereo not given)	i	-17%
CC(C)CC1=NN(C(=O)c2cccnc2)C(O)(C(F)(F)F)C1 (stereo not given)	-9%	-1%
O=C(NNC(=O)c1ccc(Cn2cccn2)o1)NC12CC3CC(CC(C3)C1)C2	-9%	-4%
Cc1ccc(CN(Cc2cccn2-c2nnc(N3CCCC3=O)s2)C(=O)Nc2ccccc2Cl)cc1	-15%	-12%
O=S(=O)(c1cccc2ccccc12)N1CCN(c2ccc(Cl)c(Cl)c2)CC1	-9%	6%
O=C(COC(=O)CNC(=O)c1ccccc1)Nc1ccc2c(c1)OCO2	-1%	-14%
Cn1c2c(c(=O)n(C)c1=O)C(NC(=O)C(C)(C)C)(C(F)(F)F)C(=O)N2 (stereo not given)	-3%	-6%
CCC(C)NC(=O)COC(=O)c1cccnc1Nc1ccccc1F (stereo not given)	-14%	-10%
CC(=O)Oc1cc2c(c(C)c1OC(C)=O)CC=C1[C@]3(C)CC[C@]4(C)CC[C@@](C)(C(=O)O)CC4[C@]3(C)CC[C@]12C (stereo not given in full)	-21%	-19%
CCOC(=O)C1CCCN(C(=S)NC2CCCCC2)C1 (stereo not given)	-3%	-5%
CCOc1ccc(OCc2cccc(C(=O)N3CCCCCC3)c2)cc1	i	-11%

Screens: PubChem, National Center for Advancing Translational Sciences (NCATS)
